Compound activity from PubChem BioAssay.
ClpP mod: qHTS Assay for Activators of ClpP; 340,000 compounds, 1.9% hits; purified B. subtilis ClpP, FRET peptide cleavage, 20 min; AID 651965, 2013; ATP-dependent Clp protease proteolytic subunit (Bacillus subtilis (strain 168)), P80244; Potency, µM (highest dose often 57.5 µM), without a hit: top-dose activity change, negative = active; active = well fitted falling curve with a large enough effect; inconclusive = small, poorly fitted or top-dose-only effect; inactive = no such curve, though single readings can be large or run the other way; note: potency is the fitted concentration of half-maximal effect; the source files actives as falling curves though it sought activators and does not explain the sign; nearly all actives have a fitted effect of over 65% in size; many hits overshoot -100%
Target sequence (P80244 whole entry, looked up): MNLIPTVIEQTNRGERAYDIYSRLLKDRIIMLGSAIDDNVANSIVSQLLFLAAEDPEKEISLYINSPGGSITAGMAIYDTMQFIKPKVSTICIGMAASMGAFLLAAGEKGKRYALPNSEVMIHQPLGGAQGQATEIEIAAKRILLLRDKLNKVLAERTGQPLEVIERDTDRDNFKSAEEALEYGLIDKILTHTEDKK
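FRET quenching reversal measured ClpP activation: 10 microg/mL B. subtilis ClpP at pH 8 with the FRET-FV decapeptide, read at 430 nm after 320 nm excitation. The 20-min minus 0-min signal was scaled between DMSO/no-enzyme wells and ADEP (5.8 microM final).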
TRPML1 blocker: human mucolipin-1 channel inhibition; TRPML1-inducible cells, Ca2+ dye fluorescence, FDSS; hits give low values; inhibition of EC80 agonist-evoked calcium signal; activity change, negative = inhibition, % (no concentration beside the values); 390,000 compounds, 0.02% hits; in the data active means activity change below about -50%; inconclusive means about -30% to -50%; inactive means above about -30%;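 note: stimulus is agonist 54-4 at its EC80 concentration; % is set by controls: 0 for no effect and ±100 for the full control effect; compound concentration not given in the record; the text of the record puts the active cut at -80%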
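TRPML1-DL cells, Tet-induced overnight (~16 h, 37 °C) at 1,500 cells/well, were loaded with Ca8 no-wash dye plus quencher for 45-90 min at room temperature. Compounds were pinned during FDSS kinetic reading; agonist 54-4 at EC80 (4 uM final) then added.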
TRPV1 potentiator: human TRPV1 potentiation; potentiation, % at 8.33 µM; TRPV1-expressing cells, Fluo-8 calcium influx, capsaicin EC20 potentiation; host cell line not named in the record; control for the full effect not named in the record; 320,000 compounds, 0.02% hits; AID 540277; active means potentiation above 80%; inconclusive means 30% to 80%; inactive means below 30%; note: 0% is about no effect
Target sequence (Q8NER1 whole entry, looked up): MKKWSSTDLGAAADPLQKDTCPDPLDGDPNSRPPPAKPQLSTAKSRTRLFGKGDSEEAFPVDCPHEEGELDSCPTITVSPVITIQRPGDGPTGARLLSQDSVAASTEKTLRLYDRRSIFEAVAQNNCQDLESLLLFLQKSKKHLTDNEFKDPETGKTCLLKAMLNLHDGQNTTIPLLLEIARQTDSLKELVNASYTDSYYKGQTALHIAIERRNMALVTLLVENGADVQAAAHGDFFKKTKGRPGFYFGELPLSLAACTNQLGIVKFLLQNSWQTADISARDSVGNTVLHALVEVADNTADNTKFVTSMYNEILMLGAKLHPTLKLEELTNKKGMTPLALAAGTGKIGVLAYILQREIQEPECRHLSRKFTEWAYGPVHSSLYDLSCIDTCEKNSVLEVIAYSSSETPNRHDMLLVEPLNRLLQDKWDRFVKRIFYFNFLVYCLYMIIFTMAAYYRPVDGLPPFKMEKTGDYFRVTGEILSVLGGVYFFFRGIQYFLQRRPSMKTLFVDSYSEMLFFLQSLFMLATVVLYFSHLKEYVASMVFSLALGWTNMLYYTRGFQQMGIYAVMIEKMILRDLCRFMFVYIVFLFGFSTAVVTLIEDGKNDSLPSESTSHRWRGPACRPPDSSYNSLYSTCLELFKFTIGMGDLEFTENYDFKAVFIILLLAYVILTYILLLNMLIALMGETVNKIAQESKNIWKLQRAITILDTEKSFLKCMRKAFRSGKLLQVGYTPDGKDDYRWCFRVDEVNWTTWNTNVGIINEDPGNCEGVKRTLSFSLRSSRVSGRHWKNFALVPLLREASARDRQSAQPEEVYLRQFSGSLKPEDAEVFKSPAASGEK
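Cells expressing TRPV1 were dye-loaded with Fluo-8 and read kinetically: 10 s baseline, 3 min after compound (agonist portion), then 2 min after EC20 capsaicin (allosteric enhancer portion). Calcium-bound dye fluorescence at 480/520 nm.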
gsp ag: gsp mutant agonism | gsp mutant cells, cAMP HTRF, 30 min; control for the full effect not named in the record | Potency, µM (titrated, usually from 76.9 µM), for the others: at the highest dose activation (cAMP increase), hits mostly activators | 340,000 compounds, 0.13% hits | AID 624287; active = well fitted activation curve with a large enough effect; inconclusive = small, poorly fitted or top-dose-only effect, or another doubt; inactive = no such curve, though single readings can be large or run the other way; cell line not stated here;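 note: phosphodiesterase inhibitor Ro 20-1724 added with compounds to block cAMP breakdown; potency is the fitted concentration of half-maximal effect; nearly all actives have a fitted effect of over 60% in size; about a fifth of the inactives were tested at one dose only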
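Cells in DMEM/10% FBS with G418 were pretreated with compounds in DMSO plus […] (300 uM stock) for 30 min at 37C. cAMP was measured by HTRF (cAMP-d2 plus anti-cAMP antibody-K) after 30 min at room temperature.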
Sfp PPTase inh: inhibitors of Bacillus subtilis Sfp phosphopantetheinyl transferase | Potency, µM, without a hit: max response, negative = inhibition, hits mostly inhibitors | AID 1490 | 310,000 compounds, 3.5% hits | Biochemical Sfp PPTase activity, qHTS | Q9F4F7; active = well fitted inhibition curve with a large enough effect; inconclusive = small, poorly fitted or top-dose-only effect, or another doubt; inactive = no such curve, though single readings can be large or run the other way;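 note: the enzyme is Sfp with the accession as filed and its product quenches rhodamine fluorescence; potency is the fitted concentration of half-maximal effect; 0% = enzyme reaction without inhibitor and -100% = no enzyme wells; top concentration of the series not given in the record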
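Reaction rates are the 30-min fluorescence difference (ex 525, em 598 nm) in wells containing 15 nM Sfp, 5 uM rhodamine-CoA and 12.5 uM BHQ-2-YbbR at pH 7.6 with 10 mM MgCl2.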
gsp antagonist: antagonizes gsp, the McCune-Albright syndrome mutation. AID 624288. Potency, µM (doses to about 76.9 µM), for the others: at the highest dose activity change, negative = inhibition, hits mostly inhibitors. gsp-mutant cells, cAMP HTRF, 30 min; control for the full effect not named in the record. 340,000 compounds, 0.4% hits; active = falling curve of any shape with a large fitted effect; inconclusive = falling curve, mostly with a smaller effect; inactive = flat or rising curve; cell line not stated here;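 note: intracellular cAMP measured with PDE inhibitor Ro 20-1724 present during compound exposure; potency is the fitted concentration of half-maximal effect; % is set by controls: 0 for no effect and ±100 for the full control effect; nearly all actives have a fitted effect of over 65% in size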
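Cells in G418 medium, seeded 16-24 h, 37C; buffer exchange to DPBS + 1 mM CaCl2, 0.5 mM MgCl2, 0.05% BSA; cpds in DMSO + […] (300 uM stock), 30 min 37C; HTRF cAMP detection.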
Menin MLL FP FL: inhibitors of human menin-MLL interaction, wild-type MLL peptide; Fluorescence polarization, fluorescein-MLL peptide displacement from menin; FP activity change, % at 61.4 µM; 290,000 tested, under 10 active; inconclusive = falling polarisation curve, or a change in total fluorescence; inactive = total fluorescence flat and polarisation flat or rising; no compound was filed as active; the % refers to the polarisation; negative = inhibition;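 note: % of control where 0% means no effect; inhibitors lower the polarisation; unlabelled MLL peptide was the positive control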
* marks the source's active call; other numbers are inactive results; ? = inconclusive; · = not tested or not shown; & = joins results of further samples; [ ] = dose if it differs, or a comment.

item	Molecule	ClpP mod	TRPML1 blocker	TRPV1 potentiator	gsp ag	Sfp PPTase inh	gsp antagonist	Menin MLL FP FL
1	Cn1ncc(Cl)c1C(=O)Nc1ccc(CN2CCCCC2)cc1	0.1%	13	11	-11%	9%	12%	-1.3
2	Cc1ccc(S(=O)(=O)N2[C@@H](c3ccc(Cl)c(Cl)c3)C(C(=O)O)=C[C@H]2C(C)(C)C)cc1	1.7%	-11	·	·	·	-8%	·
3	Cn1cc(Cl)c(C(=O)Nc2nc3ccc([N+](=O)[O-])cc3s2)n1	·	-9	18	3%[15.4 µM]	11%	4%	6.9
4	CSCCNC(=O)c1ccc2nc(C3CCCCC3)oc2c1	-2.0%	22	1	-13%[15.4 µM]	8%	-4%	-0.4
5	CN(C(=O)c1ccno1)c1nnc(-c2cnccn2)s1	-3.4%	2	-1	-1%	50µM*	-1%	4.4
6	CC(C)(C)NC(=O)C(c1ccco1)N(C(=O)Cn1nnc(-c2ccc(F)cc2)n1)c1cccc(F)c1 (centres undefined)	0.4%	-10	-10	-60%[inhibitor]	15%	1%	0.2
7	Cc1cc2ccccn2c1C(=O)Nc1ccccc1	·	1	17	-23%	19%	-16%	-3.4
8	C=CCN1C=CC(=O)CC1	2.4%	-2	-30	·	-2%	11%	0.0

Shown with each value named: entries from further up.
7) Cc1cc2ccccn2c1C(=O)Nc1ccccc1
- ClpP mod = ·
- TRPML1 blocker = 1
- TRPV1 potentiator = 17
- gsp ag = -23%
- Sfp PPTase inh = 19%
- gsp antagonist = -16%
- Menin MLL FP FL = -3.4
8) C=CCN1C=CC(=O)CC1
- ClpP mod = 2.4%
- TRPML1 blocker = -2
- TRPV1 potentiator = -30
- gsp ag = ·
- Sfp PPTase inh = -2%
- gsp antagonist = 11%
- Menin MLL FP FL = 0.0

(list continues)
item	Molecule	ClpP mod	TRPML1 blocker	TRPV1 potentiator	gsp ag	Sfp PPTase inh	gsp antagonist	Menin MLL FP FL
9	COc1ccc(CC(=O)NC2CC2)cc1OC	-1.3%	-6	-6	0%	12%	-12%	-7.8
10	O=C(NN1C(=O)C2C3c4ccccc4C(c4ccccc43)[C@@H]2C1=O)c1ccccc1 (some centres undefined)	1.2%	6	-8	1%	-6%	-9%	2.1
11	Cc1cc(C(=O)Nc2sc3c(c2C#N)CCCC3)no1	-0.2%	-10	-1	-9%	20µM*	-23%	1.5
12	CN(C)CCNc1nc(-c2ccccc2)nnc1C(F)(F)F	-16%	46	4	?	23%	5%	3.4
13	O=[N+]([O-])c1cc(S(=O)(=O)N2CCCC2)ccc1N/N=C/c1cccs1	-0.6%	32	23	-14%	-1%	3%	16
14	NC(=O)c1cc(S(=O)(=O)NCc2ccc(Br)cc2)cs1	-0.1%	15&-10	-2	?	19%	-3%	-1.5
15	Cc1cc(=O)oc(C)c1C(=O)Nc1ccc2nsnc2c1	?	-12	?	?	?	4%	0.7
16	CCOC(=O)c1sc2nccc(OC)c2c1N=CNOC	·	-14	2	16%[15.4 µM]	14%	2%	0.7

item	Molecule	ClpP mod	TRPML1 blocker	TRPV1 potentiator	gsp ag	Sfp PPTase inh	gsp antagonist	Menin MLL FP FL
17	O=c1[nH]c(N2CCCCC2)nc2c1CCCC2	-5.2%	10	24	18%	7%	5%	-2.1
18	COc1ccccc1N1C(=O)c2cccc3c(Cl)ccc(c23)C1=O	0.3%	-12	0	-6%[15.4 µM]	-1%	-17%	-0.6
19	NNC(=O)c1nnn(-c2nonc2N)c1CN1CCCC1	1.7%	·	-2	-122%	14%	-5%	0.1
20	Cc1ccc(CSc2nnc(SCC(=O)N/N=C/C=C/c3ccco3)s2)cc1	-3.2%	11	2	-17%	40µM*	7%	16
21	Cc1onc(C(=O)Nc2ccccc2C(F)(F)F)c1[N+](=O)[O-]	1.2%	-3	10	?	12%	1%	·
22	CCCc1cc(=O)oc2c3c(c4c(c12)OC(C)(C)C=C4)OC(C)C(C)C3O (centres undefined)	-5.3%	42	3	6%	?	?	1.1
23	O=C(OC1CCCCC1)c1ccc(NC(=O)c2ccco2)cc1	?	1	-22	-18%	-1%	?	3.2
24	CC1(C)Cc2cccc(OCC(=O)Nc3ccccc3C(F)(F)F)c2O1	-4.0%	-1	-7	8%	2%	0%	0.4

item	Molecule	ClpP mod	TRPML1 blocker	TRPV1 potentiator	gsp ag	Sfp PPTase inh	gsp antagonist	Menin MLL FP FL
25	COc1cc(/C=C2\SC(N)=NC2=O)ccc1OCC(=O)Nc1ccc(C)cc1	-1.0%	-8	23	16%	-4%	-8%	8.4
26	O=C(Oc1nsnc1N1CCOCC1)c1ccccc1	-1.3%	-7	2	-32%[inhibitor]	-29%	1%	-1.0
27	O=C(Cn1ccc2ccccc2c1=O)NCC(=O)N1CCN(c2ccc(F)cc2)CC1	·	-11	-30	23%	3%	0%	-5.9
28	Cc1ccc(S(=O)(=O)N(CC(=O)NCC2CCCO2)Cc2cccc(C)c2)cc1 (centres undefined)	?	-13	-22	-14%	14%	-9%	·
29	Cc1nc2ccccc2c2c(N)c3ccccc3n12	·	-4	3	19%[15.4 µM]	-1%	·	?
30	CC(=O)c1ccc(OCC(=O)c2cc(C)n(-c3ccc4c(c3)OCO4)c2C)cc1	0.8%	28	-9	-1%	-4%	-14%	4.3
31	CC(=O)c1ccc(OCc2cc(C(=O)N3CC4C[C@@H]5CC3C[C@H](C4)C5)no2)cc1	-1.9%	17	-3	?	26%	?	·
32	Cc1nc2nc(COc3ccccc3)[nH]n2c(=O)c1Cl	-6.2%	29	0	13%	19%	4%	0.6

item	Molecule	ClpP mod	TRPML1 blocker	TRPV1 potentiator	gsp ag	Sfp PPTase inh	gsp antagonist	Menin MLL FP FL
33	Nc1ccnn1-c1ccccc1	0.4%	-16	14	8%	24%	4%	-9.3
34	CCN(CC)C(=O)COc1ccc(-c2ccccc2)cc1	1.6%	7	?	-18%	2%	-11%	1.9
35	COCc1cc(C)n(CC(=O)Nc2ccccc2OC)c(=O)c1C#N	?	46	2	26%	20%	15%	-1.1
36	C=CSc1sc(Cl)c(N(CC)CC)c1[N+](=O)[O-]	·	-9	-3	1%[15.4 µM]	13µM*	-8%	-3.9
37	Cc1ccc2cc3c(N)c4c(C)ccc(C)c4nc3nc2c1	-1.4%	25	2	11%	-3%	-4%	?
38	C#CCOCCOCCOCCNc1nc(N2CCN(C(=O)[C@H](CCC(=O)O)n3cc(C(N)[C@H](C)CC)nn3)CC2)nc(N2CCN(C(=O)[C@H](Cc3cc4ccccc4[nH]3)n3cc(C(N)[C@H](C)CC)nn3)CC2)n1 (some centres undefined)	·	·	-6	·	4%	·	3.2
39	O=C(Cc1coc2ccc3ccccc3c12)N1CCN(c2ncccn2)CC1	-28%	7	10	-8%	9%	-5%	5.5
40	Cc1nnc(NC(=O)c2ccc(S(=O)(=O)N3CCCCC3C)cc2)o1 (centres undefined)	-8.8%	-8	1	-26%	-24%	-2%	-3.4

item	Molecule	ClpP mod	TRPML1 blocker	TRPV1 potentiator	gsp ag	Sfp PPTase inh	gsp antagonist	Menin MLL FP FL
41	CCc1nc2ccccc2n1Cc1cc(=O)n2cc(C)ccc2n1	?	0	-2	?	12%	-2%	-2.0
42	FC(F)(F)c1nnc(Nc2ccc(Cl)cc2)s1	·	-2	-25	21%[15.4 µM]	15%	6%	3.7
43	COc1ccc(OCC(=O)OC2CCCN(C)C2)cc1 (centres undefined)	·	-8	-4	-3%	9%	7%	-0.5
44	Cc1ccc(-c2ccccc2)n1-c1ccc(C(=O)O)cc1	-1.6%	-17	17	11%	71µM*	-10%	6.6
45	CNC(=O)c1ccsc1NC(=O)C1CCN(S(=O)(=O)c2ccc(Cl)s2)CC1	·	7	8	-15%[15.4 µM]	·	-22%	·
46	O=C(O)CCN1C(=O)C2C3CC(C2C1=O)C1C(c2ccccc2)c2sc(=O)n(-c4ccccc4)c2SC31 (centres undefined)	·	7	-4	-1%[15.4 µM]	?	-9%	1.3

Grouped by structure: the entries above containing a Cl atom.
item	Molecule	ClpP mod	TRPML1 blocker	TRPV1 potentiator	gsp ag	Sfp PPTase inh	gsp antagonist	Menin MLL FP FL
1	Cn1ncc(Cl)c1C(=O)Nc1ccc(CN2CCCCC2)cc1	0.1%	13	11	-11%	9%	12%	-1.3
2	Cc1ccc(S(=O)(=O)N2[C@@H](c3ccc(Cl)c(Cl)c3)C(C(=O)O)=C[C@H]2C(C)(C)C)cc1	1.7%	-11	·	·	·	-8%	·
3	Cn1cc(Cl)c(C(=O)Nc2nc3ccc([N+](=O)[O-])cc3s2)n1	·	-9	18	3%[15.4 µM]	11%	4%	6.9
18	COc1ccccc1N1C(=O)c2cccc3c(Cl)ccc(c23)C1=O	0.3%	-12	0	-6%[15.4 µM]	-1%	-17%	-0.6
32	Cc1nc2nc(COc3ccccc3)[nH]n2c(=O)c1Cl	-6.2%	29	0	13%	19%	4%	0.6
36	C=CSc1sc(Cl)c(N(CC)CC)c1[N+](=O)[O-]	·	-9	-3	1%[15.4 µM]	13µM*	-8%	-3.9
42	FC(F)(F)c1nnc(Nc2ccc(Cl)cc2)s1	·	-2	-25	21%[15.4 µM]	15%	6%	3.7
45	CNC(=O)c1ccsc1NC(=O)C1CCN(S(=O)(=O)c2ccc(Cl)s2)CC1	·	7	8	-15%[15.4 µM]	·	-22%	·
